# Compound activity as filed in PubChem BioAssay.
# H5N1 antiviral = MDCK cell protection from H5N1 avian flu; 96,000 tested, 0.07% active; cytopathic effect, luminescence, 72 h; active compounds read high; no value below 0 was filed and about half of the inactive calls have no number; reference of the scale not given here; inhibition, % at 50 µM; in the data active = inhibition above about 25%
# * hit, by the source's call; i = inactive. Some of the compounds tested (hit frequency here may not be typical).
# Preview:
SMILES,H5N1 antiviral
Cc1cc(=O)[nH]c(-n2nc(C)c(Oc3ccccc3O)c2C)n1,0.4
CCn1cc([N+](=O)[O-])c(C(=O)Nc2ccn(Cc3ccccc3F)n2)n1,0.4
COc1ccc(-c2nnc(SCC(=O)c3ccco3)n2-c2ccccc2)cc1,3.3

# The list itself (from the top)
SMILES,H5N1 antiviral
Cc1cc(=O)[nH]c(-n2nc(C)c(Oc3ccccc3O)c2C)n1,0.4
CCn1cc([N+](=O)[O-])c(C(=O)Nc2ccn(Cc3ccccc3F)n2)n1,0.4
COc1ccc(-c2nnc(SCC(=O)c3ccco3)n2-c2ccccc2)cc1,3.3
COc1ccc(Nc2nnc(SCc3cc(=O)n4ccsc4n3)s2)cc1,i
O=C(Nc1cccc(OC(=O)c2cccnc2)c1)c1cccnc1,i
COC(=O)c1c(NC(=O)Nc2ccc(Cl)cc2)sc(C)c1C,i
COc1ccccc1CNS(=O)(=O)c1c(C)noc1C,i
CCC(=O)N1CCc2cc(Br)cc(S(=O)(=O)NCc3ccco3)c21,6.8
O=Nc1c(O)n(Cc2ccc(Cl)c(Cl)c2)c2ccccc12,2.1
O=C(CN1C(=O)/C(=C/c2ccccc2)SC1=S)Nc1ncc(Cc2ccccc2)s1,i
Cn1c(=O)cc(SCC(=O)NCc2ccco2)c2ccccc21,5.5
CCNC(=O)COC(=O)/C=C/c1ccccc1[N+](=O)[O-],i
CCCN(CCC)C1=N/C(=C\c2ccco2)C(=O)N1c1ccccc1,3.7
O=C1NCCN2CCCC12 (stereo unspecified),i
CCN(CC)C(=O)CSc1nnc(CNc2ccc(F)cc2)n1Cc1ccco1,0.6
O=C1c2cccc3c(Cl)ccc(c23)C(=O)N1O,0.3
N#Cc1ccccc1CSc1nc(N2CCCCC2)nc(N2CCCCC2)n1,2.1
O=C(COc1cc(O)c2c(=O)cc(-c3ccccc3)oc2c1)c1ccc(F)cc1,i
Cc1ccc(S(=O)(=O)C2(C(=O)N(C)C3CCCCC3)CC2)cc1,0.9
O=C(Nc1ccccc1N1CCN(C(=O)c2ccccc2)CC1)c1ccc2c(c1)OCO2,1.8
O=C(CN1CCC(NC(=O)Nc2ccccc2-c2ccccc2)CC1)NCc1ccco1,i
CCOC(=O)c1[nH]c(C)c(C(=O)NC2CCN(C(=O)OCC)CC2)c1C,0.1
O=C(c1cccs1)N(Cc1ccco1)C1CCS(=O)(=O)C1 (stereo unspecified),i
CCc1ccc2[nH]c(=O)c(CN(CCN3CCCC3)C(=O)NC3CCCCC3)cc2c1,i
Cc1cc(C)c(OCCN2C(=O)NC(C)(C)C2=O)c(Cl)c1,i

# Reprinted from the part before: two compounds, then new ones.
SMILES,H5N1 antiviral
CCc1ccc2[nH]c(=O)c(CN(CCN3CCCC3)C(=O)NC3CCCCC3)cc2c1,i
Cc1cc(C)c(OCCN2C(=O)NC(C)(C)C2=O)c(Cl)c1,i
O=C(CCn1c(=O)sc2ccccc21)Nc1nc2ccccc2s1,1.8
O=C(Cn1cccc1C(=O)c1ccccc1)NCc1ccc2c(c1)OCO2,i
CCC(=O)Oc1c(S(=O)(=O)c2ccc(C)cc2)c(C)nn1C(C)(C)C,1.0
O=C(NC1CCCCCCC1)C1CCN(S(=O)(=O)N2CCC3(CC2)OCCO3)CC1,i
CC(=O)CC(=O)NC1C2CC3CC(C2)CC1C3 (stereo unspecified),0.8
Cn1c(=O)c2c(nc(NCc3ccco3)n2C)n(C)c1=O,9.2
CCNC(=O)c1ccc(NS(=O)(=O)c2ccccc2)cc1,i
COc1cc2[nH]c(=O)n(Cc3ccc(C(=O)NCCCN4CCC(C)CC4)cc3)c(=O)c2cc1OC,1.4
CCCSc1n[nH]c(NC(C)=O)n1,i
N#CC1=C(Nc2ccccc2)SC=C(c2ccccc2)N=C1N1CCOCC1,i
Cn1c(SCC(=O)c2ccc(-c3ccccc3)cc2)nnc1-c1ccco1,i
O=C(CCN1CCN(c2ccc(Cl)cc2)CC1)Nc1nccs1,i
COC1CCCCC1Nc1cc(C)ccc1C (stereo unspecified),i
O=C(NCCNCCO)c1c(O)c2cccc3c2n(c1=O)CCC3,i
COc1ccc(N(CC(=O)NCC2CCCO2)S(=O)(=O)c2c(C)noc2C)cc1 (stereo unspecified),0.1
COc1cc(CNc2cc(C)ccc2C)cc(OC)c1OC,i
O=C(Nc1ncn[nH]1)c1c(Cl)ccc(Cl)c1Cl,i
CCOc1ccc(NC(=O)c2ccc(S(=O)(=O)N(C)C)cc2)cc1,0.4
Cn1c(SCC(=O)NC(C)(C)C)nc(O)cc1=O,1.5
Cc1cccc(C)c1N(CC(=O)N1CCN(C)CC1)S(C)(=O)=O,0.9
Oc1ccc(Oc2ncc(Cl)cc2Cl)cc1,i
COc1ccc(C2C=C(c3ccccc3)Nc3ncnn32)cc1 (stereo unspecified),i
COC(=O)c1ccccc1NC(=O)c1cc2nc(C3CC3)cc(C(F)(F)F)n2n1,i
CN1C(=O)c2cccc3c(Cl)ccc(c23)C1=O,0.3
O=C(c1ccccc1)c1ccc(N2CCCC2)cc1,i

# Given tab-delimited: entries from further up.
structure	H5N1 antiviral
COc1cc(CNc2cc(C)ccc2C)cc(OC)c1OC	i
O=C(Nc1ncn[nH]1)c1c(Cl)ccc(Cl)c1Cl	i
CCOc1ccc(NC(=O)c2ccc(S(=O)(=O)N(C)C)cc2)cc1	0.4
Cn1c(SCC(=O)NC(C)(C)C)nc(O)cc1=O	1.5

# (more compounds)
SMILES,H5N1 antiviral
Cc1ccccc1-n1nnnc1SCc1ncc(-c2ccccc2)o1,i
Cn1c(=O)c2c(nc(CN3CCc4ccccc4C3)n2Cc2ccccc2F)n(C)c1=O,2.5
O=C(Nc1ccccc1)N(CCCN1CCOCC1)Cc1cccs1,0.4
COc1cc2[nH]c(=O)n(Cc3ccc(C(=O)NCC4CCCO4)cc3)c(=O)c2cc1OC (stereo unspecified),i
C=CCn1c(Cc2csc(N)n2)nnc1SCC(=O)Nc1ccccc1C(F)(F)F,0.5
CCOC(=O)c1cc(C#N)c(Oc2ccccc2)nc1-c1ccccc1,0.0
C=CCN1C(=O)S/C(=C\c2ccc(N3CCOCC3)cc2C)C1=O,i
O=C(c1ccccc1F)N1CCN(c2ncccn2)CC1,i
N#CC(c1nc2ccccc2nc1N1CCCC1)S(=O)(=O)c1ccccc1 (stereo unspecified),0.2
Cc1ccc(-c2ccc(/C=N/NC(=S)Nc3ccccc3)o2)cc1[N+](=O)[O-],i
CN1CCN(C(c2cccc(C(F)(F)F)c2)c2nnnn2C(C)(C)C)CC1 (stereo unspecified),0.3
COc1ccc(C(=O)/C=C/Nc2cc(C)on2)cc1,i
CCCCCn1c(=O)[nH]c2cc(C(=O)N3CCN(CC)CC3)ccc2c1=O,0.5
Cc1cc(Oc2ccccc2)nc(N)n1,i
CCOC(=O)COc1cccc2c(=O)n(CC(=O)N3CCCc4ccccc43)ccc12,1.2
COc1ccc(-c2onc(C)c2-c2ccccc2)c(O)c1,i
O=C(Nc1ccc(N2CCOCC2)c(F)c1)c1ccncc1,i
O=C(c1cc2ccccc2oc1=O)N1CCN(C(=O)C2CCCO2)CC1 (stereo unspecified),0.6
O=C1c2ccccc2C(Nc2ccc(S(=O)(=O)N3CCOCC3)cc2)N1Cc1ccco1 (stereo unspecified),i
COc1ccc(CCNC(=O)c2cc(-c3cc(C)ccc3O)n[nH]2)cc1OC,i
O=c1[nH]c2ccsc2c(=O)n1-c1ccc(F)cc1,0.0
COc1ccc2c(c1)c(C(=O)O)c(C)n2CC(C)C,i
CC(C)c1nnc(NC(=O)CCC(=O)NCc2ccco2)s1,0.9
CN1CCN(NC(=O)c2cccc(F)c2)CC1,0.6
c1cnc(SCCOc2ccc3c(c2)CCC3)nc1,i

# (list continues)
SMILES,H5N1 antiviral
COc1cc(/C=N/NC(=O)c2sc(N)c(C#N)c2C)cc(Br)c1O,5.5
COc1cc(S(=O)(=O)NCCc2ccc3c(c2)OCO3)ccc1-n1cnnn1,i
COc1cccc2cc(C(=O)N3CCc4ccccc4C3)c(=O)oc12,1.1
COc1ccc(OC)c(-n2c(SCC(=O)NCc3ccco3)nnc2-c2c[nH]c3ccccc23)c1,0.8
O=[N+]([O-])c1ccccc1CNC(Cc1ccccc1)c1ccccc1 (stereo unspecified),0.5
Cc1cc2c(c(=O)o1)C1(C(=O)N(C)c3ccccc31)C(C#N)=C(N)O2 (stereo unspecified),0.2
Cc1ccccc1-c1nc(CS(=O)(=O)CC(=O)NCCN2CCOCC2)c(C)o1,i
O=C(c1cc2ccccc2o1)n1nnc2ccccc21,i
CCOc1ccc(N2C(=O)CS/C2=C(\C(Cl)=C(Cl)Cl)[N+](=O)[O-])cc1,0.0
Cc1sc2nc(SCc3nnc(-c4cccs4)o3)n(C3CCCC3)c(=O)c2c1C,17.7
Cc1ccc(SCc2[nH]nc3c2C(c2cccnc2)C(C#N)=C(N)O3)cc1 (stereo unspecified),0.2
CCC(C)NC(=O)c1ccccc1NC(=O)COc1ccc(OC)cc1 (stereo unspecified),i
CC(C)OC(=O)CSc1nnc(-c2ccc(O)cc2)n1Cc1ccccc1,1.3
CC(=O)c1cc(NC(=O)c2ccc(C)cc2)c(=O)oc1/C=C/N(C)C,i
O=C(Cc1ccc(S(=O)(=O)N2CCOCC2)s1)Nc1ccc2c(c1)CCC2,3.5
CC(C)Cc1cc(C(=O)O)n[nH]1,i
COc1ccc(/C=N/NC(=O)c2ccn[nH]2)cc1COc1ccc(F)cc1,2.2
O=C1CC(c2ccco2)Cc2nc(NCC3CCCO3)ncc21 (stereo unspecified),1.1
O=c1cc(/C=C/c2cccs2)[nH]c2ccccc12,6.4
COc1cccc(CNC(=O)C23CN(Cc4ccccc4)CC2C(c2ccc([N+](=O)[O-])cc2)=NO3)c1 (stereo unspecified),0.2
C=CCOc1ccc(C2N3CC4(C)CN2CC(CCC)(C3)C4=O)cc1 (stereo unspecified),0.3
COc1ccc(OC)c2[nH]c(=O)c(CCNS(=O)(=O)c3ccccc3)cc12,i
CC(=O)c1ccc(NC(=O)c2cccs2)cc1,0.3
C/C(=N\N=C\c1ccccc1)c1nnn(-c2nonc2N)c1C,1.7
COc1cccc(OCc2nc3c4cnn(-c5ccccc5)c4ncn3n2)c1,i

# Overlap with the part before: three compounds, then new ones.
SMILES,H5N1 antiviral
CC(=O)c1ccc(NC(=O)c2cccs2)cc1,0.3
C/C(=N\N=C\c1ccccc1)c1nnn(-c2nonc2N)c1C,1.7
COc1cccc(OCc2nc3c4cnn(-c5ccccc5)c4ncn3n2)c1,i
COC(=O)c1sc(OC)cc1OCc1ccc(C)cc1,i
COc1cc2nc(SCc3ccc(F)cc3)n(Cc3cccs3)c(=N)c2cc1OC,1.0
COc1ccc(S(=O)(=O)Nc2cc3c(C(C)=O)c(C)oc3c3ccccc23)cc1,0.5
COc1ccc2c(c1)CCc1c(C(=O)NCCN3CCOCC3)noc1-2,i
CCn1c(SCC(=O)c2ccc3c(c2)OCCO3)nnc1C(C)C,i
COc1ccc(N2CCN(Cc3nc4c(c(=O)n(C)c(=O)n4C)n3CCc3ccccc3)CC2)cc1,0.3
O=C(Nc1sc2c(c1C(=O)NCc1ccco1)CCCC2)c1ccc2c(c1)OCO2,i
CC1(C)CC2(CCO1)NCCN1C(=O)CSC12 (stereo unspecified),i
O=S(=O)(c1ccc(Br)cc1)N1CCCC1c1nc2ccccc2s1 (stereo unspecified),i
COc1ccc(-n2c(SC)nnc2-c2c[nH]c3ccccc23)cc1,0.5
Cc1cc(N)c(NC2=CC(=O)CC(C)(C)C2)cc1C,0.7
O=C(NCC1CCCO1)c1ccc(COCC(F)(F)C(F)F)cc1 (stereo unspecified),i
COC(=O)c1ccc(N2C(=O)CC(SCCN)C2=O)cc1 (stereo unspecified),i
Cc1ccc(-n2ncc3c(Nc4cccc(C(=O)O)c4)ncnc32)cc1,i
O=P(Cc1cc[n+]([O-])cc1)(c1ccccc1)c1ccccc1,i
CN1CC=C2C(C#N)=C(N)C(C#N)(C#N)[C@H](c3ccoc3)[C@H]2C1,2.4
COc1ccc(/C(O)=C2/C(=O)C(=O)N(CCCN(C)C)C2c2ccc(C)o2)cc1Cl (stereo unspecified),0.7
COc1ccc(CC(=O)Nc2ccc(-c3cn4ccc(C)cc4n3)cc2)cc1,i
O=C(Nc1ccc2c(c1)OCCO2)C1CCCN1S(=O)(=O)c1cccc2cccnc12 (stereo unspecified),1.5
Cc1ccc(CNCCC2=CCCCC2)cc1,i
Cc1ccc(-c2nnc(SCC(=O)Nc3ccc4c(c3)oc3ccccc34)n2C)c(Cl)c1,i
COC(=O)c1c(C)oc2ccc(OC(=O)c3cccs3)cc12,0.3
OC(COCc1ccc(Cl)cc1)CN1CCN(CC(O)COCc2ccc(Cl)cc2)CC1 (stereo unspecified),i
COc1ccccc1CN1CCCCC1c1cccnc1 (stereo unspecified),1.5
CC(=O)NC1(c2ccccc2)CCN(C(=O)N2CCOCC2)CC1,2.0

# New compounds follow
SMILES,H5N1 antiviral
CCN1C(=S)SC(=O)C1=C1C=C(C)N(Cc2ccco2)C(C)=C1,0.7
CCc1ccccc1N(CC(=O)OC)S(C)(=O)=O,0.7
Cc1ccc(C(=O)Nc2nc(=O)n(C)s2)cc1,i
CSc1nc(C)cc(Oc2ccc(=O)n(C)n2)n1,0.3
Cn1c2ccccc2c2c(C(=O)O)cn(C3CCCC3)c(=O)c21,0.7
Cc1scc(C(=O)N/N=C/c2ccc(OCC(C)C)cc2)c1C,i
CC(C)(C)NC(=O)C(c1ccco1)N(C(=O)c1ccc(CN2CCOCC2)o1)c1ccccc1 (stereo unspecified),0.4
COc1c(C)cccc1C(=O)Nc1ccc(CN2CCCCC2)cc1,i
CCOC(=O)c1c(C)n(C)c2ccc(OC)c(NS(=O)(=O)c3ccc(Cl)s3)c12,2.1
CCn1c2ccccc2c2cc(N=C3SC(CC(=O)Nc4ccccc4)C(=O)N3C)ccc21 (stereo unspecified),0.3
